# MT1-MMP promoter – inhibitors of MT1-MMP promoter transcription, cell-based, luciferase reporter, luminescence (AID 618); calls from a first round at 10 µM; hits with a dose series show EC50 in µM; MT1-MMP promoter luciferase reporter cells, luminescence; 0.62% of 87,000 active;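 active = over half of the reporter light lost at 10 µM or EC50 under 50 µM; inactive = the rest and hits that failed the dose series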;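 also: actives suppress MT1-MMP promoter-driven transcription so potencies describe inhibitors; HT1080 fibrosarcoma cells; overnight exposure; toxic or luciferase-blocking compounds were not removed from the actives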
# Hsc70 ATP site – Hsc70 inhibitors, probe displacement, primary screen, biochemical, fluorescence polarization (AID 568); Hsc70 fluorescence polarization, probe displacement; higher % means a stronger effect; strong numbers were not always called active; displacement, % at 20 µM, or IC50 in µM where a hit was titrated; 83,000 tested, under 10 active;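 active = displacement above 50% without optical interference and an IC50 on retest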;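 also: ATPase domain with a fluorescein-tagged ATP probe; 0% = vehicle and 100% = excess ADP; read after one hour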
# WNV protease inh – WNV NS2B-NS3 proteinase inhibition. P06935. WNV NS2B-NS3 protease, fluorogenic substrate Ex360/Em465; stronger effect = lower value. z-score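 (tested at a level between 10 and 100 µM)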. 0.18% of 65,000 active;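 active = z-score at -3 or under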;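 also: score is relative to mean and spread of the compound wells of a plate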
# Target sequence (P06935 1371-1501 limits assumed): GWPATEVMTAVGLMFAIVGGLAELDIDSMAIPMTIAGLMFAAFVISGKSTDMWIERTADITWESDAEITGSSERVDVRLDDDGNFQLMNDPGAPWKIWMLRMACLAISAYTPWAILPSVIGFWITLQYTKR
# Target sequence (P06935 1502-1679 limits assumed): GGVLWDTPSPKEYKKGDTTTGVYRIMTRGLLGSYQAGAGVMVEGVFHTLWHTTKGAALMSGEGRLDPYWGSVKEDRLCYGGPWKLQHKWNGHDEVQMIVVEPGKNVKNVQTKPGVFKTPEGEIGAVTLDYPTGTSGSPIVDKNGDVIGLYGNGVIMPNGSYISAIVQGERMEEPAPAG
# * hit, by the source's call; i = inactive; x = no result given; + = active, no number. The list is partial (hit frequency here may not be typical).
SMILES,MT1-MMP promoter,Hsc70 ATP site,WNV protease inh
CN(Cc1ccccc1)S(=O)(=O)c1cccs1,i,0.9%,x
COc1ccc(OCC(=O)Nc2cc(-c3nn4c(C)nnc4s3)ccc2C)cc1,i,-1.3%,1.04
CN1c2ccccc2-c2nc3ccccc3n2C1c1ccncc1 (stereo unspecified),i,-2.8%,-0.54
COc1ccc2c(c1)c(CC(=O)O)c(C)n2C(=O)c1ccc(Cl)cc1,i,5.8%,-0.23
COc1ccc(OC)c(N=C2C(=O)Nc3ccccc32)c1,i,1.3%,-1.05
COc1nc(OC/C(N)=N/O)nc(N2CCOCC2)n1,i,-4.6%,-0.78
Cc1cc(Cl)cc(Br)c1OCCNCC(C)O (stereo unspecified),i,1.2%,-0.8
COc1cccc(-c2nn(-c3ccccc3)cc2C(=O)NCC(=O)O)c1,i,-4.4%,-1.29
Cc1cccc(-n2c(O)c(C=Nc3ccccc3N)c(=O)[nH]c2=O)c1,i,0.9%,-0.59
CCN1CCCC1CNC(=O)c1cc(OC)c(OC)c(OC)c1 (stereo unspecified),i,2.2%,x
O=C(C1CCCO1)N1CCN(c2ccc(F)cc2)CC1 (stereo unspecified),i,-2.3%,x
Cc1cc(NCCN2CCOCC2)n2ncc(-c3ccc(Cl)cc3)c2n1,i,-1.2%,-0.8
CS(=O)(=O)N1CCC(C(=O)Nc2cc(C(F)(F)F)ccc2Cl)CC1,i,-2.9%,2.76
COc1ccc(-c2ccc(-c3nnc(Cc4ccc(OC)c(OC)c4)o3)cc2)cc1,i,-6.0%,-0.17
Cc1ccc2c(c1)N(CCC(=O)NCCCOC(C)C)C(=O)C(C)O2 (stereo unspecified),i,0.3%,0.51
CCOC(=O)c1c(C)[nH]c(C(=O)Cn2c(=O)oc3ccccc32)c1C,i,-3.0%,-0.75
COc1cc(NS(=O)(=O)c2ccc(NC(C)=O)cc2)cc(OC)c1,i,-0.2%,1.32
S=C1NC(c2ccccc2)=NCN1c1ccc(Cl)cc1,i,2.6%,x
CC1CCN(C(=O)c2scc3c2OCCO3)CC1,i,-2.8%,-0.36
Cc1ccn2cc(CSc3ccccc3)nc2c1,i,0.5%,x
O=C(CN1C(=O)NC2(CCCCCCC2)C1=O)N1CCc2ccccc2C1,i,-3.1%,x
CCc1ccc2nc(NC(=O)CSCc3c(C)noc3C)sc2c1,i,-2.7%,2.01
CCn1c(=O)n(CC(=O)NCc2ccccc2OC)c(=O)c2ccccc21,i,0.9%,0.33
O=C1/C(=N/n2cnnc2)c2ccccc2N1Cc1ccccc1,i,-1.0%,0.51
COc1ccc(NC(=O)C(C)NS(=O)(=O)c2ccc(NC(C)=O)cc2)cc1Cl (stereo unspecified),i,1.2%,0.65
COc1ccc(C(=O)NCc2nnc(SC)n2C2CCCCC2)cc1,i,5.9%,0.38
COCc1cc(C)nc2sc(C(=O)N3CCCC3)c(N)c12,i,-2.3%,0.37
CCC1=NC(c2ccccc2OC)N(O)C1(C)C (stereo unspecified),i,0.2%,0.22
CCCCc1nc2ccccc2c(NC(=O)CN(CC)CC)c1CCC,i,2.4%,x
O=C(c1ccco1)N1CCN(C(=O)c2cc3c(=O)oc4ccccc4c3s2)CC1,i,0.1%,-0.32
Cc1cc(C)nc(-n2c(Nc3ccccc3)cc(=O)c3c(C)n(-c4ccccc4)c(=O)nc32)n1,i,2.7%,-0.02
Cn1c(=O)n(C)c2cc(S(=O)(=O)N3CCCc4ccccc43)ccc21,i,-0.5%,-1.15
O=C(NCc1cccs1)[C@@H]1CSC2c3ccccc3C(=O)N21 (stereo partly specified),i,-1.9%,-0.77
CC1CCCC(C)N1C(=O)c1cc(-c2ccc(Cl)c(Cl)c2)on1 (stereo unspecified),i,-11.4%,0.41
Cc1ccc(NC(=O)Nc2ncccc2C)cc1,i,6.0%,x
CSc1nc(=O)n(-c2ccccc2)c(C)c1C(C)=O,i,0.2%,-0.11

# Overlap with the part before: seven compounds, then new ones.
SMILES,MT1-MMP promoter,Hsc70 ATP site,WNV protease inh
O=C(c1ccco1)N1CCN(C(=O)c2cc3c(=O)oc4ccccc4c3s2)CC1,i,0.1%,-0.32
Cc1cc(C)nc(-n2c(Nc3ccccc3)cc(=O)c3c(C)n(-c4ccccc4)c(=O)nc32)n1,i,2.7%,-0.02
Cn1c(=O)n(C)c2cc(S(=O)(=O)N3CCCc4ccccc43)ccc21,i,-0.5%,-1.15
O=C(NCc1cccs1)[C@@H]1CSC2c3ccccc3C(=O)N21 (stereo partly specified),i,-1.9%,-0.77
CC1CCCC(C)N1C(=O)c1cc(-c2ccc(Cl)c(Cl)c2)on1 (stereo unspecified),i,-11.4%,0.41
Cc1ccc(NC(=O)Nc2ncccc2C)cc1,i,6.0%,x
CSc1nc(=O)n(-c2ccccc2)c(C)c1C(C)=O,i,0.2%,-0.11
COc1ccc(C2/C(=C(/O)c3ccc(OC(C)C)cc3)C(=O)C(=O)N2CCCN2CCOCC2)cc1 (stereo unspecified),i,-6.7%,-0.95
CCN1CCN(Cc2c(C)[nH]c3ccc(C(=O)OC)cc3c2=O)CC1,i,-5.4%,-1.1
CCOCCCNC(=O)C(c1ccccc1)N(Cc1ccc2c(c1)OCO2)C(=O)CNC(C)=O (stereo unspecified),i,2.5%,1.78
CCc1ccccc1NC(=O)c1onc(C)c1Cl,i,1.0%,-0.19
CCN(CC)C(=O)Cn1ncc2c1-c1ccccc1OC2,i,-5.6%,0.28
Cn1c(NCCc2ccccc2)cc(=O)n(C)c1=O,i,0.8%,0.67
O=C(CSc1ncccn1)NCCc1ccccc1,i,-3.7%,-0.35
CCC(C)NC(=O)CCC(=O)Nc1ccc2nc(N3CCOCC3)cc(C)c2c1 (stereo unspecified),i,-3.4%,1.37
CCCc1cc(N2CCCC(C(=O)Nc3ccc(OC)cc3OC)C2)n2ncnc2n1 (stereo unspecified),i,1.0%,-1.03
Cc1cc(=O)n(-c2ccc3ccccc3n2)[nH]1,i,1.6%,2.18
COc1cccc(-c2nnn(CC(=O)O)n2)c1,i,-3.0%,0.52
O=C(Nc1ccc(C(=O)N2CCCC2)cc1)c1ccc2c(c1)OCO2,i,1.6%,x
Cc1nc(NCCO)c2nnn(Cc3ccccc3F)c2n1,i,-1.7%,1.05
COc1cccc(/C=N/Nc2snc(SC)c2C#N)c1O,i,2.4%,x
O=C(O)c1ccc(S(=O)(=O)Cc2ccccc2)cc1,i,4.1%,0.28
COc1ccc(OC)c(-c2nnc(SCC(=O)NC3CCCCC3)o2)c1,i,-0.8%,0.4
CCCCOc1ccccc1C(=O)NCC(=O)O,i,-3.5%,-1.14
N#Cc1nc(-c2ccc(F)cc2)oc1NCCN1CCOCC1,i,1.1%,0.13
O=C(Nc1ccc(C(F)(F)F)cc1)C1CCCN1S(=O)(=O)c1cccc2cccnc12 (stereo unspecified),i,-6.6%,1
COC(=O)CCCCCCCCC(=O)Nc1nc2ccccc2s1,i,-10.2%,x
CSc1ccccc1C(=O)NCc1ccc2c(c1)OCO2,i,7.4%,-0.75
Cc1cc(C(=O)CSc2nnc(-c3cccc(F)c3)n2N)c(C)n1Cc1ccc2c(c1)OCO2,i,4.3%,-1.12
CCON1C(=O)CN(C(=O)OC)C1c1ccc(Cl)cc1Cl (stereo unspecified),i,2.0%,x
COc1ccc(NC(=O)CSc2nc3c(c(=O)n2-c2ccc(F)cc2)SCC3)c(OC)c1,i,-0.8%,-0.57
Cc1ccc2[nH]c(-c3ccccc3)cc(=O)c2c1,+,4.8%,-0.82
CC(=O)c1sc(Nc2nc(C)cc(C)n2)nc1C,i,3.6%,x
COc1ccc2c(c1)C(=NO)c1cc(OC)ccc1-2,i,4.2%,0.43
COc1cccc(CC2CC(=O)N(CCc3ccc4c(c3)OCO4)C2=O)c1 (stereo unspecified),i,0.6%,x
O=C(CCC(=O)NC1CCCCCC1)Nc1nnc(C(F)(F)F)s1,i,1.2%,x
C/C(=N/Oc1nc(C)cc(C)n1)c1ccccc1,i,8.9%,x
Cc1nc2sc(C(c3ccco3)N3CCN(c4ccccc4)CC3)c(O)n2n1 (stereo unspecified),i,3.5%,0.7
C=C(C)Cn1c(CCNC(=O)C(C)(C)C)nc2ccccc21,i,-4.4%,-0.66
COc1ccc(-c2cc(-c3ccccc3)n3ncnc3n2)cc1,i,-5.1%,0.53
CC(C)N1C(=O)C2ON(c3ccccc3)C(c3cccs3)C2C1=O (stereo unspecified),i,2.4%,-0.07
COc1cc(NS(=O)(=O)c2ccc(NC(=O)CSC3=NCCS3)cc2)nc(OC)n1,i,2.4%,-1.18
Cc1nc2ccccc2n1S(=O)(=O)N(C)C,i,-4.3%,0.28
CC(C)OCCCNC(=O)CN1C(=O)CC(C)(C)S(=O)(=O)c2ccccc21,i,1.2%,0.76
CCCCCC(=O)Nc1cc(N(C)C)nc2ccccc12,i,-3.4%,0.28
Cn1c(=O)c2c(nc(Br)n2CCSc2nc3ccccc3o2)n(C)c1=O,i,-0.7%,0.44
CCC(=O)Nc1ccccc1C(=O)OCC(=O)Nc1ccc(S(N)(=O)=O)cc1,i,13.7%,-0.9
CN(C(=O)COC(=O)CNS(=O)(=O)/C=C/c1ccccc1)C1CCS(=O)(=O)C1 (stereo unspecified),i,4.4%,0.43
COc1ccccc1NC(=O)N1CCCC1C(=O)NC1CCCCC1 (stereo unspecified),i,0.2%,0.48
O=C(COC(=O)C12CC3CC(CC(C3)C1)C2)N1CCN(S(=O)(=O)c2ccccc2)CC1,i,1.5%,-0.6
CC1CC(c2ccccc2)n2nc(NC(=O)c3ccco3)nc2N1 (stereo unspecified),i,2.2%,-0.5
Cn1c(SCC(=O)C(C)(C)C)nnc1-c1cccnc1,i,8.1%,-0.01
N#C/C(=C1/CCCCCN1)c1nc2ccccc2s1,i,-18.3%,-0.41
CCCCOC(=O)Nc1cccc(Cl)c1C,i,-0.3%,x
O=C(NNC(=O)[C@@H]1CCCC[C@@H]1C(=O)O)c1cccs1,i,2.4%,x
O=C(/C=C/c1ccccc1)N1CCN(C(=O)c2ccco2)CC1,i,0.3%,x
COc1ccc(-c2cc(C(=O)Nc3cnn(Cc4ccccc4C)c3)no2)cc1OC,i,0.5%,1.06
CCn1c(COc2ccccc2)nnc1SCC(=O)Nc1ccc2c(c1)OCCO2,i,-7.6%,-0.55
CCCCCC1CC(=O)N(Cc2ccc(Cl)cc2)C(=O)N1 (stereo unspecified),i,4.9%,0.29
CCCCN1CN(S(=O)(=O)c2cccs2)c2nc3ccccc3nc21,i,-6.7%,0.45
Cc1[nH]n(-c2cccc(Cl)c2)c(=O)c1-c1ccc(Cl)cc1,i,5.5%,x
COc1ccccc1NC(=O)N1CCC(c2nc3cc(C)c(C)cc3[nH]2)CC1,i,-0.4%,x
CC(C)(C)c1cc(C(C)(C)C)cc(S(=O)(=O)CCc2ccccn2)c1,i,-3.4%,x
CCOC(=O)c1sc2nc(N3CCOCC3)c3c(c2c1N)CCCC3,i,1.2%,-0.64
CC(NC(=O)COc1ccccc1)C(=O)NC1=NCCS1 (stereo unspecified),i,-1.1%,0.9
Cc1oc2c(c1C(=O)Nc1ccc(C(=O)O)cc1)CCCC2,i,3.1%,x
COC(=O)CSc1nc2cc(C)ccc2cc1C#N,i,-2.6%,0.72

# Reformatted: results already given
COc1ccc(-c2cc(C(=O)Nc3cnn(Cc4ccccc4C)c3)no2)cc1OC
  MT1-MMP promoter = i
  Hsc70 ATP site = 0.5%
  WNV protease inh = 1.06

CCn1c(COc2ccccc2)nnc1SCC(=O)Nc1ccc2c(c1)OCCO2
  MT1-MMP promoter = i
  Hsc70 ATP site = -7.6%
  WNV protease inh = -0.55

CCCCCC1CC(=O)N(Cc2ccc(Cl)cc2)C(=O)N1 (stereo unspecified)
  MT1-MMP promoter = i
  Hsc70 ATP site = 4.9%
  WNV protease inh = 0.29

CCCCN1CN(S(=O)(=O)c2cccs2)c2nc3ccccc3nc21
  MT1-MMP promoter = i
  Hsc70 ATP site = -6.7%
  WNV protease inh = 0.45

# (list continues)
SMILES,MT1-MMP promoter,Hsc70 ATP site,WNV protease inh
CCc1nnc(NC(=O)C2c3ccccc3Oc3ccccc32)s1,i,4.4%,x
COc1ccccc1N1CCN(S(=O)(=O)c2cn(C)c(=O)n(C)c2=O)CC1,i,5.1%,-0.31
CC(=O)Nc1ccc(S(=O)(=O)NCCc2ccc(F)cc2)cc1,i,-4.3%,x
COc1ccccc1Nc1nc(N)nc(CN2CCc3ccccc3C2)n1,i,-3.1%,-0.13
CCCCOc1ccccc1N,i,-3.6%,x
O=C(CCCNS(=O)(=O)c1cccc2nsnc12)NCCc1ccccc1,i,-1.2%,-0.16
COC(=O)c1oc2ccccc2c1N,i,6.4%,x
C=CCn1c(=O)/c(=C/c2ccc(O)cc2)s/c1=C(/C#N)c1nnc2n1CCCCC2,i,-68.2%,-0.94
CCOC(=O)c1sc(N(Cc2ccccc2)C(=O)CSc2nnc(C3CC3)n2N)nc1C,i,-4.8%,-1.01
CC1Cc2ccccc2N1C(=O)CSc1nc(-c2ccco2)cc(C(F)(F)F)n1 (stereo unspecified),i,-1.3%,0.35
CCN(C(=O)COC(=O)c1ccc(OCc2c(C)noc2C)cc1)c1ccccc1,i,-0.2%,x
C1=C(c2ccccc2)CCN(c2ncnc3nc[nH]c23)C1,i,-3.1%,-0.34
CN1Cc2cc(C(=O)c3cc(Cl)cc(CSc4ncccn4)c3O)cnc2NC1=O,+,-11.1%,-0.96
CCCS(=O)(=O)N1CCN(S(=O)(=O)c2ccccc2)CC1,i,-3.1%,x

# Source: PubChem BioAssay
